HSV augment – increases HSV replication in cells; AID 1956; HSV replication augmentation in cells, fold increase; actives 0.005% (n = 220,000); maximum fold increase;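 active means peak rise of 1.5-fold or more in the series; inconclusive means self-fluorescent or not available for retest; tested in PC3 cells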;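 further: first round at 10 µM; read as green reporter fluorescence; hits show the peak of a series up to 25 µM; 1 = signal of infected wells without compound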
PKD1 kinase inh – inhibitors of human PKD1 kinase; Q15139; PKD1 kinase fluorescence polarization assay; inhibition, %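 (about 10 µM by stock and volumes)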; actives 0.056% (n = 200,000); AID 797;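 active means inhibition of 50% or more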;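 further: controls were vehicle for no effect and a reference inhibitor for full effect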
Insulin prom inh – TRM-6 insulin promoter activity inhibition; TRM-6 cells (human fetal islet line), insulin promoter-eGFP reporter, imaging; reporter expression induced with tamoxifen; inhibition, % at 2 µM; actives 0.9% (n = 130,000); AID 1273;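 active means inhibition above the mean plus 3 SD, with well images judged a real hit on visual review, cut at about 60% in these data, passing the limit was not always enough; inconclusive means inhibition over the cutoff but images rejected on review; inactive means inhibition not above the cutoff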
GALR2 ag – GALR2 (human) receptor agonism | O43603 | actives 0.48% (n = 140,000) | GALR2-expressing cells, agonist activation read-out | activation, %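 (tested at 5 µM)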 | AID 803;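 active means above mean plus 3 SD of all compounds, about 5% in these data, not always enough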;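 further: 0% = vehicle buffer wells and 100% = reference agonist at full effect; tested in CHO reporter cells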
Target sequence (O43603 whole entry, looked up): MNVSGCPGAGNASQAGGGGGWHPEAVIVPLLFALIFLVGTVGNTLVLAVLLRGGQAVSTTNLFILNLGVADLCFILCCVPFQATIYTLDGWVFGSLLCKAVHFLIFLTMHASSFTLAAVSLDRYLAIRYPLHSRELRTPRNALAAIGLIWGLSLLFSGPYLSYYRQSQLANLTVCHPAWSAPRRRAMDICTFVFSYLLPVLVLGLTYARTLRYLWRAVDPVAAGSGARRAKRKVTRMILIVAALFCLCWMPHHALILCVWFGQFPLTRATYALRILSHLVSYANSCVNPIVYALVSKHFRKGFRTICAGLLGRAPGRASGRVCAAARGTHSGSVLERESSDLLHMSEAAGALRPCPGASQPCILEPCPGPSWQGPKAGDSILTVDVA
RGS16-Gao HTS – modulates binding between human RGS16 and Galphao | binding response (% of control), % at 10 µM | actives 0.38% (n = 220,000) | bead-based flow cytometry RGS16-Galphao binding, fluorescence; actives lie on both sides | AID 1441;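 active means below 25% or above 175%, edge rows of some plates excepted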;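 further: Galphao activated by GDP with aluminum fluoride before binding; 100% = wells without compound and 0% = beads without RGS; some results beyond the cut were filed as inactive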
Target sequence (O15492 whole entry, looked up): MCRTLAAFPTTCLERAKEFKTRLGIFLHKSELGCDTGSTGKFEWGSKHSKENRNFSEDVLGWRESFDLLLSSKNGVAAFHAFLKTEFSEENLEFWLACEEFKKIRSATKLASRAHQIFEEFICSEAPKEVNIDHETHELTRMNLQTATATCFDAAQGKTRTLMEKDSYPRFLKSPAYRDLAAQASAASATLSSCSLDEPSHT
Target sequence (P09471 whole entry, looked up): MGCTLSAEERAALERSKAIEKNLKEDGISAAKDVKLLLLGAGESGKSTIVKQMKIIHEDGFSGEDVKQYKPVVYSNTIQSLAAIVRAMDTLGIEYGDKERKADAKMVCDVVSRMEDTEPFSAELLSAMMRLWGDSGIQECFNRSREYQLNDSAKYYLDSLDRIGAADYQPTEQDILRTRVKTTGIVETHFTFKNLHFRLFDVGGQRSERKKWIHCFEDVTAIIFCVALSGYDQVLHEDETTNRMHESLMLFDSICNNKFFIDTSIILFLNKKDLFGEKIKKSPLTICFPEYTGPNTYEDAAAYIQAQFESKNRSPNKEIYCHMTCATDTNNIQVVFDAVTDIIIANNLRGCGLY
Insulin prom inh cell count – recorded beside Insulin prom inh, whose call it bears; normalized cell count, %; measured here: cell count, toxicity; reference of the scale not given here;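 cells exposed to compound for 48 h; stained nuclei by imaging scaled within each plate; lower means fewer cells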
HSV augment primary fold – also measured in HSV augment; calls as there; fold increase; compound at 10 µM; measured here: primary screen fold increase 10 uM; tested in PC3 cells;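 GFP signal in the first replicate; 1 = infected wells without compound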
* marks the source's active call; other numbers are inactive results; i = inactive; ? = inconclusive; / = no result given.

SMILES | HSV augment | HSV augment primary fold | PKD1 kinase inh | Insulin prom inh | Insulin prom inh cell count | GALR2 ag | RGS16-Gao HTS
CNS(=O)(=O)c1ccc(NS(=O)(=O)c2ccccc2F)cc1 | i | 1 | -3 | / | / | / | 100
Cc1cccc(/C=N/NC(=O)Cn2nccc2C)n1 | i | 0.97 | 1 | / | / | -0.8 | 98
Cc1ccccc1C(=O)O/N=C/c1c(N2CCOCC2)n(C)c2ccccc12 | i | 0.44 | -4 | / | / | 0.9 | 105
Cc1ccc(-c2c[n+]3c(n2-c2ccccc2)SCC3)cc1 | i | 0.89 | / | / | / | / | 100
Cc1csc(SCC(=O)Nc2ccccn2)n1 | i | 0.97 | -2 | -46 | 193 | -0.7 | 103
FC(F)(F)c1nnc2n1N=C(c1cccs1)CS2 | i | 1 | -3 | -17 | 79 | / | 100
Cc1csc(NC(=O)CSc2nnc(-c3ccncc3)o2)n1 | i | 0.84 | -1 | 12 | 114 | -1.3 | 103
O=C(O)c1cccc(N2C(=O)C3CC=C(Cl)CC3C2=O)c1 (centres undefined) | i | 1.3 | -9 | / | / | -1.4 | 104
COc1cc(/C=C2\N=C(c3ccccc3)OC2=O)ccc1OCc1c(C)no[n+]1[O-] | i | 1.1 | -10 | / | / | -0.3 | 100
O=C(NC(=S)NCc1ccncc1)c1ccccc1 | i | 0.92 | 5 | / | / | / | 102
CCn1c(C)nc2cc(OC)ccc21 | i | 1.1 | 0 | / | / | / | 101
CN(CC1CCCO1)S(=O)(=O)c1ccc(C(=O)Nc2nccs2)cc1 (centres undefined) | i | 1.2 | / | / | / | / | 100
COc1cc(NC(N)=S)c(OC)cc1Cl | i | 1.1 | / | / | / | / | 104
C(=N/n1c2ccccc2c2ccccc21)/c1ccco1 | i | 0.89 | 0 | -26 | 161 | 1.3 | 103
O=C(NCCN1C(=O)S/C(=C/c2ccccc2)C1=O)C1CCCN1C(=O)c1cccs1 (centres undefined) | i | 0.93 | 15 | / | / | -1.6 | 102
O=C(CSc1ccccn1)Nc1cccc([N+](=O)[O-])c1 | i | 0.88 | -5 | / | / | / | 95
O=Nc1onc(-c2ccc([N+](=O)[O-])cc2)c1NO | i | 0.89 | -3 | 19 | 131 | / | 103
Cc1nn(Cc2c(Cl)cccc2Cl)c(C)c1NC(=O)CCCn1nc([N+](=O)[O-])c(Cl)c1C | i | 1 | -3 | -32 | 117 | 0.3 | 105
Cn1nc(C(F)(F)F)c(/C=N/OC(=O)c2ccccc2)c1SCc1ccc(Cl)cc1 | i | 1 | -3 | -100 | 138 | -0.9 | 115
CCCC(=O)Nc1cc(C)c(NC(=O)c2cccs2)cn1 | i | 1 | -1 | / | / | / | 99

Two of the compounds above, as tab-separated lines:
smiles	HSV augment	HSV augment primary fold	PKD1 kinase inh	Insulin prom inh	Insulin prom inh cell count	GALR2 ag	RGS16-Gao HTS
Cn1nc(C(F)(F)F)c(/C=N/OC(=O)c2ccccc2)c1SCc1ccc(Cl)cc1	i	1	-3	-100	138	-0.9	115
CCCC(=O)Nc1cc(C)c(NC(=O)c2cccs2)cn1	i	1	-1	/	/	/	99

Additional structures.
SMILES | HSV augment | HSV augment primary fold | PKD1 kinase inh | Insulin prom inh | Insulin prom inh cell count | GALR2 ag | RGS16-Gao HTS
O=C1CSC(c2cccnc2)N1Cc1ccc(Cl)cc1 (centres undefined) | i | 1 | / | / | / | / | 103
CCN(Cc1ccncc1)Cc1nc(Cc2ccccc2Cl)no1 | i | 1.1 | -6 | / | / | / | 97
O=C1CCCc2nc(N3CCN(Cc4ccccc4)CC3)ncc21 | i | 1 | -2 | / | / | 0.0 | 118
CCC1S/C(=N/C(=O)NC2CCCCC2)NC1=O (centres undefined) | i | 0.77 | -3 | 69 | 76 | -1.1 | 101
O=Cc1cc2ccccc2nc1SCCCF | i | 0.85 | 3 | 14 | 55 | / | 106
Cc1cc2cc(C)c(SCC(=O)NCc3ccco3)nc2cc1C | i | 0.83 | -4 | / | / | / | 99
COC(=O)c1ccccc1OCC(=O)NC1CCCCC1 | i | 0.99 | 85* | -25 | 137 | -0.7 | 87
OCCCNc1ncnc2sc(-c3ccccc3)cc12 | i | 0.92 | 0 | 22 | 159 | / | 111
O=C(NC1CCCCC1)C(c1ccc(F)cc1)N(Cc1ccco1)C(=O)Cn1nnc2ccccc21 (centres undefined) | i | 0.97 | 4 | / | / | 0.2 | 105
Cc1c(NC(=O)C(C)OC(=O)COc2ccccc2)c(=O)n(-c2ccccc2)n1C (centres undefined) | i | 0.94 | 3 | / | / | / | 101
Cc1ccc(NC(=O)CCC(C(=O)O)N2C(=O)c3ccccc3C2=O)cc1 (centres undefined) | i | 0.94 | -6 | 28 | 79 | -2.4 | 97
Cc1ccccc1N1C(=O)CC2(CCCC2)CC1=O | / | / | -1 | -115 | 138 | / | 102
Cc1cc(=O)oc2cc(OCC(=O)OCC(=O)Nc3ccccc3C(C)C)ccc12 | i | 0.98 | 0 | 60* | 113* | -2.1 | 107
Cc1ccccc1-n1c(SCc2ccccn2)nc2n[nH]c(C)c2c1=N | i | 0.75 | -8 | 64 | 113 | 0.9 | 105
COc1cccc(Oc2cncnc2-c2ccc(OC)cc2O)c1 | i | 0.82 | 6 | 17 | 51 | -0.4 | 89
Nc1cccnc1Sc1ccc([N+](=O)[O-])cn1 | i | 0.92 | 13 | 38 | 90 | 0.0 | -30
Cc1csc2nc(NC(=O)c3ccccc3)sc(=O)c12 | i | 0.98 | / | / | / | / | 104
N#CCC(=O)N/N=C/c1ccc(Cl)cc1 | i | 0.99 | / | / | / | / | 108
COc1cnc(-c2ccccc2)nc1Oc1ccc(C(C)(C)C)cc1 | i | 1 | -16 | -27 | 43 | 0.8 | 99
CCCCCCC(=O)Nc1nc(C)c(-c2csc(Nc3cccc(OC)c3)n2)s1 | i | 0.67 | 5 | 9 | 92 | -1.1 | 100
COc1ccccc1CNC(=O)c1cnc2ccccn2c1=O | i | 0.9 | -1 | / | / | -0.6 | 105
Cc1csc(N(C(=O)c2cccc(S(=O)(=O)N(C)C)c2)c2ccccc2)n1 | i | 1.2 | -33 | 7 | 101 | -2.5 | 105
CCOC(=O)c1cc(C(C)(C)C)n(CCCN2CCOCC2)c1C | i | 1.1 | / | / | / | / | 104
COc1ccc(CN2CCCC(C(=O)c3cccc(OC(C)C)c3)C2)cc1Cn1cccn1 (centres undefined) | i | 0.95 | -3 | / | / | / | 107
CSCC[C@H](NC(=O)c1cccc([N+](=O)[O-])c1C)c1nc2ccccc2[nH]1 | i | 1 | 6 | -33 | 90 | 0.0 | 100
COc1cc(C(=O)Nc2cccc(-c3cn4cccnc4n3)c2)cc(OC)c1OC | i | 0.91 | -12 | 31 | 126 | / | 104
COC(=O)C(C(=O)Nc1cccc(C)n1)C1CCCCCC1 (centres undefined) | i | 0.92 | -6 | 43 | 61 | -2.9 | 103
CN1C(=O)/C(=C2\SC(=S)N(CCCCCC(=O)O)C2=O)c2ccccc21 | i | 0.88 | / | / | / | / | 98
Cc1ccc(S(=O)(=O)c2cc3c(=O)n4ccccc4nc3n(CC3CCCO3)c2=N)cc1C (centres undefined) | i | 0.96 | 4 | -44 | 54 | 1.1 | 97
CCCNC(=O)COc1ccc2c(=O)c(Oc3ccccc3F)coc2c1 | i | 0.98 | -2 | 31 | 141 | -1.0 | 107
CCC(CC)C(=O)Nc1cccc(C(=O)N2CCCCCC2)c1 | i | 0.88 | 5 | -62 | 102 | -2.6 | 100
CSCCC(NC(=O)C1CCC(C)CC1)C(=O)N1CCN(c2ccccn2)CC1 (centres undefined) | i | 0.87 | -1 | -7 | 115 | -0.7 | 104
O=C(O)C1C2CCC(O2)C1C(=O)NCc1ccc(Cl)cc1 (centres undefined) | i | 0.88 | -10 | 62* | 90* | -1.3 | 106
CCOC(=O)Cn1c(=O)c(-c2ccccc2NC)nc2ccccc21 | i | 0.82 | -3 | 25 | 84 | -2.3 | 104
CCOc1ccc2nc(/N=C/c3nc(-c4ccc(Br)cc4)oc3O)sc2c1 | i | 1 | 0 | -59 | 91 | 0.7 | 109
Cc1ccc2c(c1)CCCN2C(=O)Nc1ccc2c(c1)OCO2 | i | 0.91 | 15 | -69 | 90 | -1.6 | 109
COCCCn1c(SCc2cccc(OC)c2)nc2cc(OC)c(OC)cc2c1=N | i | 0.84 | -1 | 25 | 153 | -1.1 | 86
Cc1cccc(C)c1-n1cccc1/C=C1\SC(=S)N(c2cccc(C(=O)O)c2)C1=O | i | 1.2 | 3 | / | / | / | 110
Cc1ccc(C(=O)Nc2ccc(N3CCOCC3)nc2N2CCOCC2)cc1 | i | 1.1 | / | / | / | / | 103
CCOC(=O)c1c(-c2ccccc2)csc1NC(=O)c1ccc(S(=O)(=O)N2CC(C)OC(C)C2)cc1 (centres undefined) | i | 0.94 | 3 | / | / | -1.9 | 102
CC1(C)CC(=O)C(C(c2ccccc2F)C2C(=O)CC(C)(C)CC2=O)C(=O)C1 | i | 0.98 | -6 | 38 | 101 | -1.8 | 93
COc1ccccc1Nc1nnc(SCC(=O)NC(=O)Nc2ccc3c(c2)OCCO3)s1 | i | 0.7 | 3 | -78 | 79 | 3.2 | 105
N#C/C(=C/c1ccccc1[N+](=O)[O-])c1nnc2n1CCCCC2 | i | 0.89 | -4 | 31 | 203 | -1.8 | 114
Cc1ccc(OCC(=O)N2N=C(C(F)(F)F)CC2(O)C(C)(C)C)cc1C (centres undefined) | i | 0.88 | -11 | 3 | 146 | -1.6 | 100
O=C(CCn1nc(-c2ccc(Cl)cc2)c2ccccc2c1=O)NN1CCOCC1 | i | 0.96 | / | / | / | / | 97
Clc1ccccc1C1CC(c2ccccc2)Nc2ncnn21 (centres undefined) | i | 1 | -10 | / | / | -1.8 | 101
Cc1ccc(O)c(NC(=O)c2noc(C(C)C)c2[N+](=O)[O-])c1 | i | 0.74 | -7 | 36 | 90 | / | 99
Cc1ccc(N)cc1-n1c(C)ccc1C | i | 0.95 | -10 | 0 | 88 | -2.6 | 99
CCOc1ccc(/C(CCC(=O)O)=N/NC(=S)NC(C)C)cc1 | i | 0.92 | -9 | 21 | 119 | / | 102
COc1ccc(Cc2c(N)nc(C)nc2N)cc1 | i | 0.91 | -8 | 14 | 130 | / | 105

Whole records as entered above.
Entry for `O=C(CCn1nc(-c2ccc(Cl)cc2)c2ccccc2c1=O)NN1CCOCC1` → HSV augment: i; HSV augment primary fold: 0.96; PKD1 kinase inh: /; Insulin prom inh: /; Insulin prom inh cell count: /; GALR2 ag: /; RGS16-Gao HTS: 97
Entry for `COc1ccccc1Nc1nnc(SCC(=O)NC(=O)Nc2ccc3c(c2)OCCO3)s1` → HSV augment: i; HSV augment primary fold: 0.7; PKD1 kinase inh: 3; Insulin prom inh: -78; Insulin prom inh cell count: 79; GALR2 ag: 3.2; RGS16-Gao HTS: 105
Entry for `COc1ccc(Cc2c(N)nc(C)nc2N)cc1` → HSV augment: i; HSV augment primary fold: 0.91; PKD1 kinase inh: -8; Insulin prom inh: 14; Insulin prom inh cell count: 130; GALR2 ag: /; RGS16-Gao HTS: 105

Following part
SMILES | HSV augment | HSV augment primary fold | PKD1 kinase inh | Insulin prom inh | Insulin prom inh cell count | GALR2 ag | RGS16-Gao HTS
O=C1CC(c2cccc(Br)c2)C2=C(COC2=O)N1 (centres undefined) | i | 1.1 | -4 | / | / | / | 92
CN1/C(=C\C=C2/SC(=S)N(CC(=O)O)C2=O)C(C)(C)c2ccccc21 | ? | / | -5 | / | / | / | 100
COc1cc(C2c3[nH]c4ccccc4c3CCN2Cc2cn(C)nc2C)ccc1F (centres undefined) | i | 1 | 5 | / | / | / | 101
O=C(Cn1c(CO)nc2ccccc21)Nc1ccccc1Cl | i | 1 | -5 | / | / | / | 93
COc1ccccc1CCNS(=O)(=O)c1ccc(C(=O)O)n1C | i | 0.93 | / | / | / | / | 119
O=C(NC(=O)N1CCOCC1)c1ccccc1 | i | 1.1 | -6 | / | / | -1.8 | 106
C/C(=N\NC(=S)NC1CCCCC1)c1ccc(C#N)cc1 | i | 0.93 | 7 | / | / | -0.3 | 110
Cc1occc1-c1nnc(SCC(=O)Nc2nccs2)n1CCc1ccccc1 | i | 0.88 | 6 | -19 | 73 | 0.4 | 104
CCCCNC(=O)c1c(N)n(/N=C/c2ccccn2)c2nc3ccccc3nc12 | / | / | 5 | -45 | 211 | -0.1 | 97
CON(C)c1nc(Oc2ccc(=O)[nH]n2)nc(N(C)C)n1 | i | 0.7 | 1 | -14 | 138 | -1.1 | 107
CCOC(=O)COc1ccc(Oc2nc(C)cc(OC)n2)nn1 | i | 0.99 | -1 | / | / | -1.8 | 101
Cc1ccccc1NC(=O)CN1C(=O)N/C(=C\c2ccc(N3CCOCC3)c(F)c2)C1=O | i | 0.94 | -1 | / | / | / | 95
CCNC(=O)CN(c1ccc(OC)c(OC)c1)S(=O)(=O)c1ccccc1 | i | 1 | -2 | -3 | 155 | 0.2 | 99

Bioassay records as filed in PubChem.
